Screens deposited in PubChem BioAssay by National Center for Advancing Translational Sciences (NCATS).
Methyltransferases: Primary Screen for Target Class Profiling of Small Molecule Inhibitors of Methyltransferases. purified enzyme, MTase-Glo SAH luminescence; active compounds read low. calls only at 40 µM. hit rate 3.9% among 25,000; active = -50% or lower on at least one of six enzymes; inconclusive = the cases between; inactive = as a rule above -30% on all six;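 further: enzymes were COMT GAMT GNMT HNMT NNMT and PNMT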
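Each enzyme was reacted with SAM and its substrate, with compounds tested once at 40 uM; SAH formed was read by MTase-Glo luminescence.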
Calls only; i = inactive; ? = inconclusive; + = active, no number. On the % scale 0 is the no-effect control and ±100 the full control effect. An excerpt. The share of hits here may be higher or lower than overall.

SMILES,Methyltransferases
COc1ccc2c(c1)C(CN1CCN(CC(=O)OC(C)(C)C)CC1)=CC(C)(C)O2,i
CC1(C(=O)NC2CCCCCC2)Cn2c(cc3occc32)C(=O)N1CCc1ccc(Cl)cc1 (stereo unspecified),i
CCNC(=O)Nc1ccc(OCC(=O)N2CCN(c3ccccn3)CC2)nc1,i
CC(C)CCn1c(=O)c2ccccc2n2c(=O)n(CC(=O)Nc3ccc(F)cc3F)nc12,i
CCOC(=O)c1cc2n(n1)CC(C)(C(=O)NCc1ccccc1OC)N(c1ccc3c(c1)OCO3)C2=O (stereo unspecified),i
O=C(NCc1ccco1)[C@@H]1Cc2nc[nH]c2CN1CCCc1ccccc1,i
Cc1cccc(C(=O)N2CC(Oc3ccc(-c4noc(C5CCOCC5)n4)cc3)C2)c1,i
CCOCC(=O)Nc1nn(-c2ccc(F)cc2)c2cccc(N3CCOC3=O)c12,i
CC(=O)Nc1cccc(CN2CCC(N3CCCNC3=O)CC2)c1,i
FC(F)(F)c1ccc(CN2CCCC3(CC(c4ccccn4)=NO3)C2)cc1 (stereo unspecified),i
COc1c(C)cnc(Cn2cc(C#CCC(C)(C)O)c3c(Cl)nc(N)nc32)c1C,i
COC(=O)N[C@H](C(=O)N1[C@@H]2CC[C@@H](C2)[C@H]1c1nc2ccc(-c3ccc4c(c3)C(F)(F)c3cc(-c5cnc([C@@H]6CCC7(CC7)N6C(=O)[C@@H](NC(=O)OC)C(C)C)[nH]5)ccc3-4)cc2[nH]1)C(C)C,?
O=C(CSc1nnc2n(CCc3ccccc3)c(=O)c3ccccc3n12)Nc1cccc(Cl)c1,i
c1ccc(-c2[nH]ncc2-c2ccnc3ccccc23)nc1,?
CCCC1c2cccn2CCN1C(=O)Nc1ccccc1 (stereo unspecified),i
CC1CCCCN1CCN1C(=O)c2cc3ccccc3n2CC1(C)C(=O)NC1CCCCCCC1 (stereo unspecified),i
COc1ccccc1C(=O)N1CCC(C(=O)N2CCC(c3nc4ncccc4[nH]3)C2)CC1 (stereo unspecified),i
O=C(NC1CCCCCC1)c1cc(-c2cc(Cl)cc(Cl)c2)c2nncn2n1,i
CC(C)CCn1c(=O)c2ccc(C(=O)NC3CCCC3)cc2n2c(=O)n(CC(=O)Nc3ccccc3)nc12,i
CCC(C)NC(=O)c1ccc2c(=O)n(Cc3ccccc3)c3nn(CC(N)=O)c(=O)n3c2c1 (stereo unspecified),i
CC1(C(=O)NCc2ccccc2)Cn2nc(-c3ccccc3)cc2C(=O)N1c1ccc(F)cc1 (stereo unspecified),i
COc1ccccc1N1CCN(c2ncnc3n[nH]c(Br)c23)CC1,+
CC(=O)NC(Cc1ccccc1)C(=O)NC(C(=O)O)C(C)C (stereo unspecified),i
CCOc1ccc(CN2C(=O)c3cc4oc(C)cc4n3CC2(C)C(=O)NC2CCCCCC2)cc1 (stereo unspecified),i
Cc1ccc(NS(=O)(=O)c2cc3c(cc2N[C@@H](C)CO)NC(=O)CC3)cc1C,?
O=C(CCc1nnc2n(Cc3ccc(Cl)cc3)c(=O)c3ccccc3n12)N1CCN(C2CCCCC2)CC1,i
Cc1ccc(Cc2nn3c(SCC(=O)NC4CCCCC4)nnc3[nH]c2=O)cc1,i
CCCCN1C(=O)c2cc(C(=O)N3CCN(c4ccccn4)CC3)nn2CC1(C)C(=O)NC1CCCC1 (stereo unspecified),i
COCCN1CCOC[C@H]2CCN(C(=O)c3cnccn3)C[C@H]21,i
Cc1ccc(NS(=O)(=O)c2cc3c(cc2C)n(C)c(=O)n3C)c(C)c1,i
CC(C)CCn1c(=O)c2ccccc2n2c(SCC(=O)NCc3ccccc3)nnc12,i
CC1(C(=O)NC2CCCC2)Cn2cnc(C(=O)Nc3cccc(Cl)c3)c2C(=O)N1C1CC1 (stereo unspecified),i
CC(C)n1c(=O)c2ccc(C(=O)NC3CCCC3)cc2n2c(=O)n(CC(=O)NCc3ccccc3)nc12,i
CC1CCCC(NC(=O)C2(C)Cn3c(cc4sccc43)C(=O)N2Cc2cccc(F)c2)C1C (stereo unspecified),i
Cc1nc2c3ccccc3n3c(CCCC(=O)N4CCN(Cc5ccccc5)CC4)nnc3n2n1,i
COCc1noc(CCNc2nc(C)nc3c2cnn3C)n1,i
Cc1nc(C)c(C(=O)N2CCC3(CC2)CC(N(Cc2ccccc2)C2CC2)CCO3)s1 (stereo unspecified),i
COCC(=O)NC1(Cc2cc(-c3ccc(OC)cc3)on2)COC1,i
CC(=O)N1CCN(Cc2snnc2C(C)C)CC(O)C1 (stereo unspecified),i
CC(C)(C)c1ccc(S(=O)(=O)NCCn2c(CCc3ccccc3)nc3ccccc32)cc1,i

Structures listed so far that have an aryl thioether with sulfur outside any ring:
SMILES,Methyltransferases
O=C(CSc1nnc2n(CCc3ccccc3)c(=O)c3ccccc3n12)Nc1cccc(Cl)c1,i
Cc1ccc(Cc2nn3c(SCC(=O)NC4CCCCC4)nnc3[nH]c2=O)cc1,i
CC(C)CCn1c(=O)c2ccccc2n2c(SCC(=O)NCc3ccccc3)nnc12,i

Later entries
SMILES,Methyltransferases
CCCn1c(=O)c2ccc(Cl)cc2n2c(=O)n(CC(=O)c3cccc(Cl)c3)nc12,i
O=C(NCCc1ccccc1)c1ccc2c(=O)nc3c(-c4ccccc4)n[nH]n3c2c1,i
O=C1Nc2ccccc2CC12CCCN(C1COC1)C2 (stereo unspecified),i
O=C(Nc1cc(C(F)(F)F)cc(C(F)(F)F)c1)c1cnc(Cl)nc1C(F)(F)F,?
Cc1onc(-c2ccccc2)c1C(=O)N[C@@H]1C(=O)N2[C@@H]1SC(C)(C)[C@@H]2C(=O)O,i
O=C(O)c1cnn(-c2nc3cc(OC(F)(F)F)c(Cl)cc3[nH]2)c1,i
Cc1cnc(C2CC2)n1CCNC(=O)NC1CCCCC1,i
Cc1ccc(Cl)cc1N1CCN(S(=O)(=O)c2ccc3[nH]c4c(c3c2)CCCC4)CC1,i
COc1ccc(C(=O)N[C@@H]2CN(c3ncccn3)C[C@H]2CN(C)C)cn1,i
CCOC(=O)C(C)Oc1ccc2c(-c3ccccc3)cc(=O)oc2c1 (stereo unspecified),i
Cc1cc(Cl)ccc1NC1CN(C(=O)OC(C)(C)C)C1,i
O=c1[nH]c2ccc(S(=O)(=O)NC3CCN(Cc4ccccc4)CC3)cc2[nH]1,i
Cn1c(=O)n(C)c2cc(S(=O)(=O)N3CCOCC3)c(Cl)cc21,i
CC(=O)O[C@H]1CC(C)(C)CC2[C@@]13[C@H](O)C[C@]1(C)[C@@]2(CCC2[C@@]4(C)CC[C@H](O[C@@H]5OC[C@H](O[C@@H]6O[C@H](CO)[C@@H](O)[C@H](O)[C@H]6O[C@@H]6OC[C@@H](O)[C@H](O)[C@H]6O)[C@H](O)[C@H]5O[C@@H]5O[C@H](CO)[C@@H](O)[C@H](O)[C@H]5O)C(C)(C)C4CC[C@]21C)O[C@@H]3O (stereo partly specified),i
COc1ccccc1CNC(=O)c1ccc2c(=O)nc3c(-c4ccccc4F)n[nH]n3c2c1,i
CCOC(=O)c1ccc(Nc2nc3c(S(=O)(=O)c4ccc(C)cc4)nnn3c3ccccc23)cc1,i
CCOc1ccc(Cc2nc(-c3c(C)nc4ccccn34)cs2)cc1,i
CCOc1ccc(CNC(=O)CN(C)S(=O)(=O)c2ccc3[nH]c4c(c3c2)CCCC4)cc1OC,i
O=C(OC[C@H]1O[C@@H](Oc2ccccc2CO)[C@H](O)[C@@H](O)[C@@H]1O)c1ccccc1,i
CC(c1ccccc1)N1C(=O)c2ccccc2CC1(C)C(=O)NC1CCCCCCC1 (stereo unspecified),i
CCOC(=O)c1cc2n(n1)CC(C)(C(=O)NCc1ccccc1OC)N(c1ccc(OCC)cc1)C2=O (stereo unspecified),i
CC(=O)O[C@H]1C[C@@]2(C)[C@@H](CC[C@H]3[C@@]4(C)C=CC(=O)[C@@H](C)[C@@H]4[C@H](O)C(=O)[C@@]32C)/C1=C(/CCC=C(C)C)C(=O)O,i
CSCC1OC(n2cnc3c(N)ncnc32)C(O)C1O (stereo unspecified),?
C[N+](C)(C)CCCCCCCCCC[N+](C)(C)C,i
Cc1ccc(NS(=O)(=O)c2cc3c(cc2NC(C)CO)NC(=O)CC3)cc1C (stereo unspecified),?
O=C(Nc1cccc(Cl)c1)N1CCn2cccc2C1Cc1ccccc1 (stereo unspecified),i
CCCC1c2cccn2CCN1C(=O)Nc1cc(Cl)ccc1C (stereo unspecified),?
CNC(=O)c1cc(C2CC2)nc2onc(C3CCN(C(=O)C4CCCCC4)CC3)c12,i
CC1CCN(S(=O)(=O)c2ccc3c(c2)oc(=O)n3CC(=O)N2CCN(Cc3ccccc3)CC2)CC1,i
COc1cc(F)c(F)c(Nc2ccc(I)cc2F)c1NS(=O)(=O)C1(CC(O)CO)CC1 (stereo unspecified),?
COc1ccccc1N1CCN([C@@H]2[C@H](O)[C@H](CO)O[C@@H]2CNC2CCCCC2)CC1,i
O=S(=O)(c1ccc2[nH]c3c(c2c1)CCCC3)N1CCN(C2CCCCC2)CC1,i
CCc1ccc(CNC(=O)CCn2ccc3cc(S(=O)(=O)N4CCCC4)ccc32)cc1,i
C=C1CCC2C(C)(C)CCC[C@]2(C)[C@H]1CC/C(C)=C/C(=O)O (stereo partly specified),?
Cc1cccc(CC(=O)N2CCc3c2ccc(-c2cn(C)c4ncnc(N)c24)c3F)n1,i
COCCCN1C(=O)c2nc3ccccc3n2CC1(C)C(=O)NC1CCCC1 (stereo unspecified),i
COc1ccc(NC(=O)N2CCc3c(nc4cc(-c5ccccc5)[nH]n4c3=O)C2)c(OC)c1,i
C/C(=C\CCC(C)C1=CCC2(C)OC3=C(CC12)C(=O)C(O)CC3)CO (stereo unspecified),i
CCOC(=O)CNC(=O)C1(C)Cn2c(ccc2-c2ccco2)C(=O)N1Cc1ccc(OC)cc1 (stereo unspecified),i
C=C[C@]1(C)C[C@H](O)[C@H]2C(=C)C(=O)O[C@@H]2[C@H]1C(=C)CO,i
CN(C)CCN(C)[C@@H]1[C@H](O)[C@H](CO)O[C@@H]1CN(Cc1ccc(Cl)cc1)Cc1cccc(Cl)c1,i
O=C(NCCc1ccccc1)c1cc(-c2ccc(F)cc2)nc2n[nH]c(-c3ccccc3)c12,i
COc1ccc(CN2CC[C@H](c3nc(C)no3)[C@H](NC(=O)C3CC3)C2)cc1,i
O=C(CCc1nc2ccccc2s1)N1CCC(c2noc(C3CC3)n2)C1 (stereo unspecified),i
O=C(CCc1nnc2n(Cc3ccc(Cl)cc3)c(=O)c3ccccc3n12)N1CCN(c2ccccc2)CC1,i
CC(NC(=O)CN1C(=O)NC2(CCS(=O)(=O)CC2)C1=O)c1ccccc1 (stereo unspecified),i
COC1=CC(=O)C[C@@H](C)[C@]12Oc1cc(OC)cc(OC)c1C2=O,i
C=C(F)c1sc(CNCCCNc2cc(=O)c3ccccc3[nH]2)c(C)c1Br,+
C=Cc1ccc(Cn2nc3n(CCC(C)C)c(=O)c4ccc(C(=O)NC(C)CC)cc4n3c2=O)cc1 (stereo unspecified),i
CCCN1C(=O)c2cc(C(=O)NCCCN3CCOCC3)nn2CC1(C)C(=O)NC1CCCC1 (stereo unspecified),i
CC(C)c1ccccc1OC(=O)NCCc1ccc2ccccc2c1,i
O=C(O)c1cc(-c2cccc(CO)c2)cc(S(=O)(=O)NC2CCCC2)c1,i
Cc1ccc(S(=O)(=O)c2nnn3c2nc(NCCCOC(C)C)c2ccccc23)cc1C,i
CCOc1ccc(CCNC(=O)Cn2ccc3cc(S(=O)(=O)N4CCC(C)CC4)ccc32)cc1,i
CC(=O)O[C@H]1CC2C(COC(=O)CC(C)C)=CO[C@@H](OC(=O)CC(C)C)C2[C@]12CO2 (stereo partly specified),i
COC(=O)[C@@H]1Cc2ncn(Cc3ccc(OC)cc3)c2CN1S(=O)(=O)c1ccccc1,i
Cc1ccc(CN2C(=O)CSc3c(c4ccccc4n3C)C2C(=O)NCCCOC(C)C)cc1 (stereo unspecified),i
CC(=O)O[C@@H]1c2c(C)coc2C(=O)[C@@]23O[C@@H]2CC[C@H](C)[C@@]13C,i
COCCN1C(=O)c2c(NC(C)=O)c3cc(F)ccc3n2CC1(C)C(=O)NC1CCCCCC1 (stereo unspecified),i
CC1(C(=O)NC2CCCC2)Cn2c(c(-n3cccc3)c3ccccc32)C(=O)N1Cc1ccccc1 (stereo unspecified),i

Next section.
SMILES,Methyltransferases
COc1ccccc1CN1C(=O)c2cc3occc3n2CC1(C)C(=O)NC1CCCCC1 (stereo unspecified),i
COc1ccc(CNC(=O)c2ccc3c(=O)nc4c(-c5ccc(C)cc5)n[nH]n4c3c2)cc1,i
Cc1ccc(NC(=O)Cn2nc3n(Cc4ccccc4)c(=O)c4ccccc4n3c2=O)c(C)c1,i
CN1C(=O)c2cc(C(=O)NC3CCCCC3)nn2CC1(C)C(=O)NCc1ccccc1 (stereo unspecified),i
Nc1nc(CCCNC(=O)C2CC(=O)N(Cc3ccccn3)C2)cs1 (stereo unspecified),i
COCC1CN(C(C)=O)CC12CCN(Cc1cccc(Cl)c1F)CC2 (stereo unspecified),i

Sorted by SMILES length (ascending): three of the compounds above
SMILES,Methyltransferases
COCC1CN(C(C)=O)CC12CCN(Cc1cccc(Cl)c1F)CC2 (stereo unspecified),i
CN1C(=O)c2cc(C(=O)NC3CCCCC3)nn2CC1(C)C(=O)NCc1ccccc1 (stereo unspecified),i
Cc1ccc(NC(=O)Cn2nc3n(Cc4ccccc4)c(=O)c4ccccc4n3c2=O)c(C)c1,i
